Bioassay records as filed in PubChem BioAssay.
Methyltransferases = Primary Screen for Target Class Profiling of Small Molecule Inhibitors of Methyltransferases. purified enzyme, MTase-Glo SAH luminescence; stronger effect = lower value. calls only at 40 µM. AID 1745853, 2022. hit rate 3.9% among 25,000; active = -50% or lower on at least one of six enzymes; inconclusive = the cases between; inactive = as a rule above -30% on all six;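 also: enzymes were COMT GAMT GNMT HNMT NNMT and PNMT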
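Each enzyme was reacted with SAM and its substrate, with compounds tested once at 40 uM; SAH formed was read by MTase-Glo luminescence.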
Calls only; i = inactive; ? = inconclusive; + = active, no number. % is scaled to controls: 0 for no effect and ±100 for the full control effect.

SMILES	Methyltransferases
CCC(C)NC(=O)c1ccc2c(=O)n(C)c3nnc(SCc4ccccc4C)n3c2c1 (stereo not given)	i
COc1cc(O)cc(O[C@@H]2O[C@H](CO)[C@@H](O[C@@H]3OC[C@](O)(CO)[C@H]3O)[C@H](O)[C@H]2O)c1OC	i
O=Nc1c2[nH]c3ccccc3nc-2c2ccccc12	?
CN1C(=O)c2cc(C(=O)NC3CCCC3)nn2CC1(C)C(=O)NCc1ccc(F)cc1 (stereo not given)	i
O=C1NCCCCCN(Cc2cn[nH]c2-c2ccc(F)cc2)[C@H]2CCC[C@@H]12	i
CC1[C@@H](O)[C@@H](O)C2[C@]3(C)C(C[C@H]4OC(=O)[C@H](O)[C@]1(O)[C@@]24C)C(C)(O)C[C@H](O)[C@H]3O (stereo not given in full)	i
C=C[C@H]1[C@H](O[C@@H]2O[C@H](CO)[C@@H](O)[C@H](O)[C@H]2O)OC=C2C(=O)OCC[C@]21O	i
CCOC(=O)c1cc2n(n1)CC(C)(C(=O)NC1CCCC1)N(c1cccc(Cl)c1)C2=O (stereo not given)	i
COc1cccc(N2CCN(c3ccc4nnc(CCC(=O)NCCC(C)C)n4n3)CC2)c1	i
O=C(c1ccccc1)N1CCCC2(CC(c3ccccn3)=NO2)C1 (stereo not given)	i
CCc1ccc(N2C(=O)c3c(C(=O)OC)ncn3CC2(C)C(=O)NC2CCCC2)cc1 (stereo not given)	i
O=C(c1cc(F)ccc1F)N1CCCC(Cc2noc(-c3ccccc3)n2)C1 (stereo not given)	i
Cc1cc2c(cc3n2CC(C)(C(=O)NC2CCCCCCC2)N(CCN(C)C2CCCCC2)C3=O)o1 (stereo not given)	i
CC(C)CCn1c(=O)c2ccc(C(=O)NC(C)C)cc2n2c(=O)n(CC(=O)Nc3ccccc3)nc12	i
COc1ccc(CCNC(=O)Cn2ccc3cc(S(=O)(=O)N4CCCC4)ccc32)cc1OC	i
CCCn1c(=O)c2ccccc2n2c(SCC(=O)Nc3cccc(F)c3)nnc12	i
CCCN1C(=O)c2c(C(=O)NCCC3=CCCCC3)ncn2CC1(C)C(=O)NCc1ccc(OC)cc1 (stereo not given)	i
Cc1ccc(-c2ccccc2CN2CCN([S+](=O)([O-])c3cccc(C(F)(F)F)c3)CC2)cc1Cl	i
OC1(CN2CCCCC2)CCN(Cc2cnn(-c3ccccc3Cl)c2)C1 (stereo not given)	i
CC1(C)CC[C@]2(C(=O)O)CC[C@]3(C)C(=CCC4[C@@]5(C)CC[C@H](O[C@@H]6O[C@H](C(=O)O)[C@@H](O)[C@H](O)[C@H]6O)C(C)(C)C5CC[C@]43C)C2C1 (stereo not given in full)	i
COc1cccc(Cn2nc3n(Cc4ccccc4)c(=O)c4ccc(C(=O)NCC(C)C)cc4n3c2=O)c1	i
CC(=O)N1CC2(CCN(C3CCCCC3)CC2)Cc2ccccc21	i
O=C(Cc1ccccn1)N1CCN(C(=O)c2cccc(-c3ccccn3)c2)CC1	i
CN(CCc1cn[nH]c1)C(=O)C1CCN(C(=O)C2CCC2)CC1	i
Cc1ncc(-c2nc3cc(S(=O)(=O)NC(C)C)ccc3n2C(C)C)cn1	i

(cont.)
SMILES	Methyltransferases
CN1C(=O)c2cc(C(=O)Nc3ccccc3Cl)nn2CC1(C)C(=O)NC1CCCCC1 (stereo not given)	i
COc1ccc(C(=O)N2CCCC3(CN[S+](=O)([O-])c4ccccc4N3)C2)cc1 (stereo not given)	i
CCNC(=O)N1CCC(N2C(=O)C3(CCCC3)C2c2ccccc2)CC1 (stereo not given)	i
O=C(Cn1c(=O)oc2cc(S(=O)(=O)N3CCCC3)ccc21)Nc1ccccc1Br	i
CCCn1c(=O)c2ccc(Cl)cc2n2c(=O)n(CC(=O)Nc3cc(F)ccc3F)nc12	i
CN1CCN(CCCNC(=O)c2cc3n(n2)CC(C)(C(=O)NC2CCCC2)N(C)C3=O)CC1 (stereo not given)	i
CSc1ccc(-c2cccc(C(=O)NCC(=O)N3CCCC3)c2)cc1	i
COc1cc(OC)c(NC(=O)N2CCn3cccc3C2C(C)C)cc1Cl (stereo not given)	i
CCCn1c(=O)c2ccc(C(=O)NC3CCCC3)cc2n2c(=O)n(CC(=O)c3cc(C)ccc3C)nc12	i
CC(C)Cc1cc(C(=O)N2CCOC(C(F)(F)F)C2)n[nH]1 (stereo not given)	i
CC1(C(=O)NCc2cccnc2)CCCc2cnc(Nc3ccccc3F)nc21 (stereo not given)	i
COCc1ccc(C(=O)N2CCCC(CCc3cccc(OC)c3)C2)o1 (stereo not given)	i
CCOC(=O)c1cc2n(n1)CC(C)(C(=O)NCCC(C)C)N(Cc1ccc3c(c1)OCO3)C2=O (stereo not given)	i
O=c1cc(-c2ccccc2)oc2c(O)c(O)ccc12	i
COc1ccc2cc3c(NC(=O)c4ccco4)nn(C)c3nc2c1	i
COc1cccc([C@@H]2CN(C(=O)c3oc(C)nc3C)C[C@H]2C(=O)O)c1OC	i
Cc1ccc(CNC(=O)CCn2ccc3cc(S(=O)(=O)N4CCC(C)CC4)ccc32)cc1	i
Cc1cccc(-c2nnn3c2nc(NCCC(C)C)c2ccccc23)c1	i
O=C(NCc1cccs1)c1c[nH]c2ncccc12	i
CCn1c2c(c(=O)n1Cc1ccccc1)CCN(C(=O)c1scnc1C)C2	i
CCOc1ccccc1CN1CCC(C)(c2noc(C3CCOCC3)n2)CC1	i
Cc1nc(C(=O)N2CC[C@H](NC(=O)c3snnc3C)C[C@H]2C(=O)N[C@H](CC(C)C)C(N)=O)cs1	i
CC1CCN(C(=O)CCn2ccc3cc(S(=O)(=O)N4CCCCC4)ccc32)CC1	i
CC1(C(=O)NC2CCCCCCC2)Cc2ccccc2C(=O)N1CCc1ccccc1 (stereo not given)	i
Cc1cc(F)ccc1[C@H]1C[C@@H](N2CCN3C(=O)CC[C@H]3C2)CCN1C(=O)N(C)[C@H](C)c1cc(C(F)(F)F)cc(C(F)(F)F)c1	i

(next part)
SMILES	Methyltransferases
CCCn1c(=O)c2ccccc2n2c(SCC(=O)NCc3cccc(OC)c3)nnc12	i
CCc1nn(CCO)c(CC)c1Oc1cc(C#N)cc(C#N)c1	i
CC1(C)CC[C@]2(C(=O)O[C@@H]3O[C@H](CO)[C@@H](O)[C@H](O)[C@H]3O)CC[C@]3(C)C(=CCC4[C@@]5(C)CC[C@H](O[C@@H]6O[C@H](C(=O)O)[C@@H](O)[C@H](O)[C@H]6O)[C@@](C)(CO)C5CC[C@]43C)C2C1 (stereo not given in full)	i
Cn1cc(CNCC2CCN(c3ncc(C(=O)NO)cn3)CC2)c2ccccc21	?
COc1ccc2c(c1)c(NC(C)=O)c1n2CC(C)(C(=O)NC2CCCC2)N(Cc2cccnc2)C1=O (stereo not given)	i
O=C(CCn1ccn2nc3c(c2c1=O)CCCC3)N1CCSCC1	i
Cc1ccc2[nH]c(CN3CCC(c4cccc(C#N)c4)CC3)cc(=O)c2c1	i
CC1CCCCN1Cc1nnc2cc(-c3nc(-c4ccccc4)no3)ccn12 (stereo not given)	i
c1nc(NCC2CCOC2)c2cc(-c3ccc4c(c3)OCO4)ccc2n1 (stereo not given)	+
CCc1cccc(N2C(=O)c3c(C(=O)OC)ncn3CC2(C)C(=O)NC2CCCCC2)c1 (stereo not given)	i
CC(=O)N1CCC(C(=O)N[C@H]2CCN3C(=O)N(c4ccc(OC(F)(F)F)cc4)C(=O)[C@@H]3C2)CC1	i
Cn1c(=O)c2ccc(C(=O)NC3CCCC3)cc2n2c(SCC(=O)Nc3cccc(F)c3)nnc12	i
C=C1[C@@H]2[C@H]3OC(=O)C(=C)[C@@H]3CC[C@@](C)(O)[C@@H]2C[C@@H]1O[C@@H]1O[C@H](CO)[C@@H](O)[C@H](O)[C@H]1O	i
CCOC(=O)c1cccc(NC(=O)N2Cc3c(sc4c3CCCC4)-n3cccc3C2C(C)C)c1 (stereo not given)	i
CC(=O)N1Cc2ccccc2NC(=O)C12CCNCC2	i
Cc1ccc(CNC(=O)C2(C)Cn3nc(C(=O)NCCN4CCCCC4)cc3C(=O)N2C)cc1 (stereo not given)	i
CC(C)CNC(=O)c1ccc2c(=O)n(CC(C)C)c3nn(Cc4cccc(F)c4)c(=O)n3c2c1	i
O=C(CCc1cnccn1)N1CCC(CCC(=O)N2CCC(Cc3ccccc3)CC2)CC1	i
Cc1ccc(NC(=O)N2CCn3c(C)ccc3C2C(C)C)c(C)c1 (stereo not given)	i
O=C1c2cncnc2OCC(CNC(=O)C2(c3ccccc3)CC2)N1Cc1ccccc1 (stereo not given)	i
CCOc1ccc(CN2C(=O)c3cc(-c4ccccc4)nn3CC2(C)C(=O)NCc2ccccc2OC)cc1 (stereo not given)	i
C[C@H](NC(c1cccc2[nH]c(=O)c(=O)[nH]c12)P(=O)(O)O)c1ccc(Br)cc1 (stereo not given in full)	i
COC(=O)c1cc2n(n1)CC(C)(C(=O)NC1CCCCC1)N(c1cc(C)ccc1C)C2=O (stereo not given)	i
O=C([C@H]1C[C@H](Oc2cccnc2)CN1C(=O)Nc1ccccc1)N1CCOCC1	i
CC1CCC(NC(=O)C2(C)Cn3c(ccc3-c3ccco3)C(=O)N2CCc2ccc(Cl)cc2)CC1 (stereo not given)	i

Additional entries.
SMILES	Methyltransferases
COc1ccc(CNC(=O)[C@@H]2CCC[C@@H](NCc3cccnc3)CN(C)C(=O)C2)cc1	i
COC(=O)c1nc(NC(=O)Cn2nc3c(cc2=O)CCCC3)sc1C(C)C	+
OC[C@@H]1CNC[C@H]1c1nc(C2CC2)no1	i
O=C(CCc1nnc2n(Cc3ccc(F)cc3)c(=O)c3ccccc3n12)NCc1ccc(Cl)cc1	i
O=c1c2ccccc2n2c(=O)n(Cc3ccccc3)nc2n1Cc1ccc(F)cc1	i
CCCN1C(=O)c2c(C(=O)NCc3ccc(OCC)cc3)ncn2CC1(C)C(=O)NCc1ccc(F)cc1 (stereo not given)	i
CCN(Cc1ccccc1)c1nc2c(S(=O)(=O)c3ccccc3)nnn2c2ccccc12	i
CCOC(=O)c1cnc(N2CC3CCC(C2)N3CC(F)(F)F)s1	i
CCCc1cc(C(=O)N2CCC(=O)N(CC3CC3)C(C(C)C)C2)cs1 (stereo not given)	i
CCOC(=O)c1cc2n(n1)CC(C)(C(=O)NCc1ccc(F)cc1)N(Cc1ccccc1OC)C2=O (stereo not given)	i
COC(=O)[C@@H](Cc1c[nH]c2ccccc12)NC(=O)[C@@H]1CN(C(=O)Nc2ccccc2)CCN1C(=O)NC(C)C	i
O=C1CN([S+](=O)([O-])c2ccc(F)cc2)CC(O)CN1Cc1cccs1 (stereo not given)	i
Cn1cccc1C(=O)N[C@H]1C[C@@H](C(=O)O)N(C(=O)CSCC(=O)N2C[C@@H](NC(=O)c3cccn3C)C[C@H]2C(=O)O)C1	i
O=C1NC2(CCCN(Cc3ccccc3C(F)(F)F)C2)COc2ccccc21 (stereo not given)	i
CCOc1ncccc1C(=O)N[C@H](c1cncc(OC)c1)C1CC(O)C1 (stereo not given in full)	i
CC1(C)CC[C@]2(C(=O)O[C@@H]3O[C@H](CO)[C@@H](O)[C@H](O)[C@H]3O)CC[C@]3(C)C(=CCC4[C@@]5(C)CC[C@H](OC6OC(C(=O)O)C(OC7OC(CO)C(O)C(O)C7O)C(O)C6O)C(C)(C)C5CC[C@]43C)C2C1 (stereo not given in full)	?
O=C(C1CC=CC1)N1C[C@@H](COc2cccnc2)[C@H](c2ccccn2)C1	i
CC(=O)N(C1CC1)C1CCOC2(CCN(C(=O)Cn3c(=O)oc4ccccc43)CC2)C1 (stereo not given)	i
O=C(NCc1ccncc1)C(=O)NCC(c1cccnc1)N1CCN(c2ccccc2)CC1 (stereo not given)	i
CC(=O)NC1(C)CCN(Cc2cccc(-c3ccc4c(ccn4C)c3)c2)C1 (stereo not given)	?
CCn1cc(CN2C[C@@H]3C(=O)N(CCCN4CCCC4=O)C(=O)[C@@H]3C2)cn1	i
CCOc1ccc2ccccc2c1C(C(=O)O)N1CCN(CC2CC2)CC1 (stereo not given)	i
O=C(Cn1nc2n(Cc3ccccc3)c(=O)c3ccccc3n2c1=O)Nc1ccc(Cl)cc1	i
CCN1CCCCC12Cc1ccccc1CN(S(=O)(=O)c1ccccc1)C2 (stereo not given)	i
O=C(C[C@@H]1CCNC[C@@H]1Cc1cc(CC2CCCCC2)on1)NC1CCCCC1	i
O=C(Nc1ccc(-c2ccc(Cl)c(Cl)c2)cc1)C1=C(O)c2ccccc2S(=O)(=O)N1	i
Cn1nc(C(=O)N2CCOc3ccc(CCC(N)=O)cc3C2)c2ccccc21	i
COc1cc(NC(=O)Cn2nc3n(CCC(C)C)c(=O)c4ccccc4n3c2=O)cc(OC)c1	i

Some of these compounds in order of formula weight, highest first:
SMILES	Methyltransferases
CC1(C)CC[C@]2(C(=O)O[C@@H]3O[C@H](CO)[C@@H](O)[C@H](O)[C@H]3O)CC[C@]3(C)C(=CCC4[C@@]5(C)CC[C@H](O[C@@H]6O[C@H](C(=O)O)[C@@H](O)[C@H](O)[C@H]6O)[C@@](C)(CO)C5CC[C@]43C)C2C1 (stereo not given in full)	i
CCOc1ccc(CN2C(=O)c3cc(-c4ccccc4)nn3CC2(C)C(=O)NCc2ccccc2OC)cc1 (stereo not given)	i
CCCN1C(=O)c2c(C(=O)NCCC3=CCCCC3)ncn2CC1(C)C(=O)NCc1ccc(OC)cc1 (stereo not given)	i
CCc1cccc(N2C(=O)c3c(C(=O)OC)ncn3CC2(C)C(=O)NC2CCCCC2)c1 (stereo not given)	i
Cn1cc(CNCC2CCN(c3ncc(C(=O)NO)cn3)CC2)c2ccccc21	?
CC1(C(=O)NCc2cccnc2)CCCc2cnc(Nc3ccccc3F)nc21 (stereo not given)	i
COC(=O)c1nc(NC(=O)Cn2nc3c(cc2=O)CCCC3)sc1C(C)C	+
COc1cccc([C@@H]2CN(C(=O)c3oc(C)nc3C)C[C@H]2C(=O)O)c1OC	i
CCOc1ncccc1C(=O)N[C@H](c1cncc(OC)c1)C1CC(O)C1 (stereo not given in full)	i
CSc1ccc(-c2cccc(C(=O)NCC(=O)N3CCCC3)c2)cc1	i
Cc1cccc(-c2nnn3c2nc(NCCC(C)C)c2ccccc23)c1	i
CC(=O)N1CC2(CCN(C3CCCCC3)CC2)Cc2ccccc21	i
OC[C@@H]1CNC[C@H]1c1nc(C2CC2)no1	i

Not all compounds are listed; count on the stated rates, not on these rows.
